From PubChem
Six1-Eya2 inh: inhibitors of human Six1/Eya2 interaction. Q15475+O00167. AlphaScreen GST-Six1/His-Eya2 binding, biochemical; active compounds read low; control for the full effect not named in the record. activity change, % (concentration not given with the values). actives 0.56% (n = 360,000). AID 651725; in the data active = activity change below about -65%; inconclusive = about -30% to -65%; inactive = above about -30%; further: on the % scale 0 is the no-effect control and ±100 the full control effect
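AlphaScreen with GST-Six1 and His-Eya2 (5X mix: 250 nM and 500 nM), glutathione donor and nickel acceptor beads; buffer 50 mM Tris pH 8.0, 300 mM NaCl, 1 mM TCEP; 1 h at 37 C in the dark.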
CtBP-E1A blk: blocks the CtBP interaction with E1A; activity change, % (no concentration beside the values); AID 651724; actives 0.49% (n = 340,000); AlphaScreen GST-E1A/His-CtBP binding, 1536-well; active compounds read low; control for the full effect not named in the record; in the data active means activity change below about -65%; inconclusive means about -30% to -65%; inactive means above about -30%; further: on the % scale 0 is the no-effect control and ±100 the full control effect
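In 5 uL wells, 23 nL compound meets equimolar GST-E1A and His-CtBP (5X stock 125 nM each) for 2 h, 37 °C. Beads (5X, 50 ug/mL) then 1 h, 37 °C, dark.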
gsp antagonist: antagonizes gsp, the McCune-Albright syndrome mutation | gsp-mutant cells, cAMP HTRF, 30 min; control for the full effect not named in the record | Potency, µM (top dose mostly 76.9 µM), for inactives: at the highest dose activity change, negative = inhibition, hits mostly inhibitors | actives 0.4% (n = 340,000) | AID 624288; active = falling curve of any shape with a large fitted effect; inconclusive = falling curve, mostly with a smaller effect; inactive = flat or rising curve; cell line not stated here;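 further: intracellular cAMP measured with PDE inhibitor Ro 20-1724 present during compound exposure; potency means the concentration at half of the fitted maximal effect; on the % scale 0 is the no-effect control and ±100 the full control effect; nearly all actives have a fitted effect of over 65% in size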
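Measurement of cellular cAMP by homogeneous time-resolved fluorescence following a 30 min compound exposure at 37C. The PDE inhibitor […] was present throughout; the assay buffer was DPBS with 0.05% BSA and 0.005% Tween 20.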
D2 potentiator: human D2 receptor positive allosteric modulation; P14416; DiscoveRx D2 beta-arrestin cells, luminescence, 90 min; 100% = 57 uM dopamine signal; potentiation, % (test concentration not listed); actives 0.23% (n = 360,000); AID 624464; active = potentiation of 50% or more; inconclusive = 30% to 50%; inactive = 30% or less;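 further: compound concentration not given in the record; tested on top of an EC20 dose of dopamine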
Target sequence (P14416 whole entry, looked up): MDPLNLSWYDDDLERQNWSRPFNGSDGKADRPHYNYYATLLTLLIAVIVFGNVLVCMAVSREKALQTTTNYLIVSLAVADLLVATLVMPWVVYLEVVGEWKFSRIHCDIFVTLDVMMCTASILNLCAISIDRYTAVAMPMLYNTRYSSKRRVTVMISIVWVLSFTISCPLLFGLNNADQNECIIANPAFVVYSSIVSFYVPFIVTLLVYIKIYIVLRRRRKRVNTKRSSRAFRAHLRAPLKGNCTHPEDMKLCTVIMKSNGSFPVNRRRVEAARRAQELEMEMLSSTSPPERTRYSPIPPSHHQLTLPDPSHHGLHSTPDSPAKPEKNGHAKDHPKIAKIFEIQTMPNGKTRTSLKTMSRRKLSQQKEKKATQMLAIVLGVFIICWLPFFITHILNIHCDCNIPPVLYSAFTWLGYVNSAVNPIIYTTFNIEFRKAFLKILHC
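PathHunter D2 cells, attached overnight at 37 deg C, received compound in DMSO plus dopamine at EC20 (50 nM final) for 90 min at 37 deg C. Beta-arrestin recruitment was read as luminescence after 1 h with detection reagent at ambient temperature.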
gsp ag: gsp mutant agonism | actives 0.13% (n = 340,000) | AID 624287 | Potency, µM (series often up to 76.9 µM), inactives show at the highest dose activation (cAMP increase), most hits filed as activators | gsp mutant cells, cAMP HTRF, 30 min; control for the full effect not named in the record; active = well fitted activation curve with a large enough effect; inconclusive = small, poorly fitted or top-dose-only effect, or another doubt; inactive = no such curve, though single readings can be large or run the other way; cell line not stated here;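 further: phosphodiesterase inhibitor Ro 20-1724 added with compounds to block cAMP breakdown; potency means the concentration at half of the fitted maximal effect; nearly all actives have a fitted effect of over 60% in size; about a fifth of the inactives were tested at one dose only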
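Cells stably selected in G418 were plated at 2000/well, grown 16-24 hr, then given compounds in DMSO with the PDE inhibitor […] (300 uM solution added) for 30 min at 37C; cAMP was read by HTRF.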
D2 agonist: activates the human D2 dopamine receptor; actives 0.084% (n = 360,000); AID 624465; DiscoveRx PathHunter D2 beta-arrestin, luminescence, 90 min; 100% = 57 uM dopamine signal; P14416; activation, % (no concentration beside the values); in the data active = activation above about 40%; inconclusive = about 15% to 40%; inactive = below about 15%; further: compound concentration not given in the record; the text of the record calls up to 30% inactive
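DiscoveRx PathHunter D2 beta-arrestin cells (2,100/well) attached overnight, then compound-stimulated 90 min at 37 C in HBSS/10 mM HEPES/0.1% Tween-20 buffer; beta-galactosidase complementation read by luminescence after 1 h at ambient temperature. Dopamine 57 uM final (EC100) as control.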
* = called active by the depositor; ? = inconclusive; · = not tested or not shown; [ ] = another dose, or the depositor's remark.

No.	Six1-Eya2 inh	CtBP-E1A blk	gsp antagonist	D2 potentiator	gsp ag	D2 agonist	SMILES
1	-2	-6	8%	-3	1%[15.4 µM]	-0.7	CN1CCN(c2ccc(C(=O)c3cn(-c4ccc(F)c(Cl)c4)nn3)cc2)CC1
2	-3	7	-7%	-4	-6%[15.4 µM]	-2.5	CN(CC(=O)Nc1cccc(F)c1)C(=O)c1cc(S(=O)(=O)N2CCCCC2)ccc1N1CCOCC1
3	-1	-4	-3%	2	-21%	-3.8	CCC(=O)NS(=O)(=O)c1ccc(N=NN2CCCCC2)cc1
4	3	2	14%	5	-66%[inhibitor]	-2.9	CCCCCCCn1c(C)nnc1-c1cnn(C)c1N
5	-6	3	4%	-5	8%[15.4 µM]	-2.6	COc1ccc(C(=O)NC2CCN(C(=O)Nc3ccc(F)cc3)CC2)cc1
6	-18	4	6%	7	-13%	2.8	N/C(=N\OCc1ccc([N+](=O)[O-])cc1)c1ccccn1
7	1	0	-1%	-8	-1%[15.4 µM]	-0.5	O=C(C[n+]1ccccc1)N/N=C/c1ccc(F)cc1
8	0	-66*	?	-19	?	2.3	Cc1cc2c(=Cc3ccc(N(C)C)cc3)c3ccccc3n2[n+]1C
9	-15	-7	·	-5	·	-4.1	COCCNC(=O)C1(C)CCCN(C(=O)c2cc(C)on2)C1 (stereo not given)
10	-2	-9	-1%	4	-5%	0.8	CN(CCc1cn[nH]c1)C(=O)C1CCC(=O)N(CC2CCCCC2)C1 (stereo not given)
11	0	-5	-1%	-7	13%	1.3	Cc1cc(NC(=O)CSc2nc3ccsc3c(=O)n2CCCCC(=O)O)no1
12	-1	1	11%	12	-5%	1.1	O=C1CN(S(=O)(=O)c2cc(C(F)(F)F)ccc2Cl)CCN1
13	-9	-1	-14%	-11	-1%	0.7	Cc1ccc(SCCNC(=S)Nc2ccccc2)cc1
14	-19	-19	-27%	-3	-21%	-2.1	O=C(Cn1cc(C(=O)c2cccs2)c2ccccc21)NCc1ccc2c(c1)OCO2
15	4	8	-11%	-31	22%[15.4 µM]	-17	O=C(CNS(=O)(=O)c1ccccc1)OCC(=O)c1cccc([N+](=O)[O-])c1
16	2	·	6%	-21	0%	-2.4	CC(CN1CCCC1)OC(=O)c1ccc(Br)cc1 (stereo not given)
17	-5	-3	2%	-36	?	-2.4	CCC(=O)OCOc1ccc(/C=C2/CCC(CN(C)C)C2=O)cc1 (stereo not given)
18	-1	6	-8%	-3	0%	-3.2	c1ccc(OCCOc2ncnc3sccc23)cc1
19	14	26	-6%	-5	-4%[15.4 µM]	0.5	CC(C)(C)c1ccc(SCCc2ccccn2)cc1
20	9	-16	-19%	-15	3%	3.4	O=c1cc(-c2ccc([N+](=O)[O-])cc2)c2cc3c(cc2[nH]1)OCCO3
21	-10	-22	1%	-1	-5%	-0.5	O=C(NCc1ccco1)c1ccc(COc2ccccc2[N+](=O)[O-])o1
22	2	8	-15%	-7	15%	3.9	O=c1c2ccccc2oc2ccc(-c3ccc4cc[nH]c4c3)cc12
23	15	18	13%	-1	-9%[15.4 µM]	-2.5	COc1ccc(CCN(Cc2ccccn2)C(=S)Nc2cccc(C)c2)cc1OC
24	9	7	8%	-19	?	-5.3	CC(=O)NC(=S)Nc1ccccc1C(=O)Nc1ccccc1
25	0	-6	?	-17	6%	-3.0	CC1CCc2cc(F)ccc2N1C(=O)CSc1nnc(-c2cccs2)n1C (stereo not given)
26	0	3	-6%	-22	9%	-3.5	CC1CCN(C(=O)c2[nH]cnc2C(=O)Nc2ccc(Cl)cc2)CC1
27	-10	-3	-7%	6	6%[15.4 µM]	9.0	O=[N+]([O-])c1cccc(N/N=C/c2cccc(O)c2O)c1
28	-5	-4	-3%	-9	·	-2.4	O=C(/C=C/C=C/c1ccc2c(c1)OCO2)N1CCCCC1
29	4	-3	6%	4	10%	-2.0	CN1CCN(S(=O)(=O)c2ccc(NC(=O)c3ccco3)cc2)CC1
30	7	0	·	-13	·	5.5	Cc1ncccc1C(=O)N1CCCC(c2cc(C(=O)Nc3ccc(C(C)(C)C)cc3)no2)C1 (stereo not given)

Sorted by value in gsp antagonist (smallest number first): some entries from above.
No.	Six1-Eya2 inh	CtBP-E1A blk	gsp antagonist	D2 potentiator	gsp ag	D2 agonist	SMILES
13	-9	-1	-14%	-11	-1%	0.7	Cc1ccc(SCCNC(=S)Nc2ccccc2)cc1
2	-3	7	-7%	-4	-6%[15.4 µM]	-2.5	CN(CC(=O)Nc1cccc(F)c1)C(=O)c1cc(S(=O)(=O)N2CCCCC2)ccc1N1CCOCC1
12	-1	1	11%	12	-5%	1.1	O=C1CN(S(=O)(=O)c2cc(C(F)(F)F)ccc2Cl)CCN1

Following part
No.	Six1-Eya2 inh	CtBP-E1A blk	gsp antagonist	D2 potentiator	gsp ag	D2 agonist	SMILES
31	3	8	6%	-15	·	-2.7	COc1ccc(C2c3[nH]c4ccccc4c3C[C@H]3C(=O)N(c4ccccc4C(=O)N4CCC[C@@H]4C(=O)O)C(=O)N23)cc1 (stereo not given in full)
32	-1	2	6%	-1	?	-1.7	CCN(CC)S(=O)(=O)c1ccc(NN=c2c(=O)c3ccccc3c2=O)cc1
33	16	·	4%	1	1%	1.5	O=C(/C=C/c1cccc(Oc2ccccc2)c1)N1CCOCC1
34	-11	-17	·	-19	·	3.9	COc1cc(Cl)ccc1OC1(C)CCN(Cc2ccc(SC)cc2)C1 (stereo not given)
35	-2	-2	-11%	-10	1%	-1.1	COc1ccc(CNC(=O)C(C)n2ccc3cc(S(=O)(=O)N4CCCCCC4)ccc32)cc1 (stereo not given)
36	2	2	4%	-4	-4%[15.4 µM]	2.5	CC1(C)CC(=O)c2cc(NC(=O)c3ccccc3)c(=O)oc2C1
37	-23	-3	?	-10	0%[15.4 µM]	-13	CCOc1ccc(C(C(=O)NCC2CCCO2)N(CCc2cccc(C)c2)C(=O)c2snc(C(N)=O)c2N)cc1 (stereo not given)
38	-16	·	-30%	-8	-33%	-0.1	Cc1ccc2c(c1)COc1c3ccc(C(=O)NCC4CC4)cc3nn1-2
39	3	·	-2%	-8	-28%	-3.9	O=C(Nc1nonc1-c1ccc(F)cc1)c1ccco1
40	-3	-17	14%	-10	-69%[inhibitor]	3.9	CCOc1ccc(C(=O)N2CCC3(CC2)NCCc2[nH]cnc23)cc1OCC
41	8	-1	-12%	-17	?	0.9	CCOc1cccc(OCCOCCn2cnc3ccccc3c2=O)c1
42	-1	5	9%	0	3%	7.6	CN(C)S(=O)(=O)c1cccc(C(=O)N2CCN(C(=O)C3CCCO3)CC2)c1 (stereo not given)
43	7	-3	·	-10	19%[15.4 µM]	10	COc1ccc(C(C(=O)NCc2ccccc2)N(C(=O)c2snc(C(N)=O)c2N)c2ccccc2OC)cc1OC (stereo not given)
44	-6	5	26%	-30	29%[15.4 µM]	-1.3	COc1cccc(/C=N/NC(=O)Cn2cnc3c2c(=O)n(C)c(=O)n3C)c1OC
45	?	?	-23%	63*	3%	11	CCOC(=O)Nc1ccc2c(c1)Nc1ccccc1S2
46	5	9	-23%	1	-3%	-4.8	Cc1c(-c2ccccc2)oc2c(C(=O)N3CCN(c4ccccc4F)CC3)cccc2c1=O
47	-28	-21	-7%	·	·	-0.6	CCN(CCc1ccccc1)c1ccc2c(c1)C1CC2CCN1C(=O)OCc1ccccc1 (stereo not given)
48	4	1	1%	15	-1%	8.0	Cc1nn(-c2cc(C)c3ccccc3n2)c2c1CCC2
49	8	7	3%	2	25%	4.5	CC1CN(C(=O)COC(=O)c2cc([N+](=O)[O-])ccc2Cl)CC(C)O1 (stereo not given)
50	5	3	17%	3	5%	-1.0	COc1ccc(CNC(=O)CCNS(=O)(=O)c2ccc(NC(C)=O)cc2)cc1OC
51	2	-3	-11%	-15	9%	0.4	COc1ccc(/C=N/OC/C(O)=C(\C#N)c2nc3ccccc3[nH]2)cc1OC
52	2	·	-6%	3	1%	3.8	COC(=O)c1sccc1NC(=O)CC1C(=O)NCCN1C(=O)c1ccc(F)cc1 (stereo not given)
53	5	5	·	6	-21%	-0.2	C=CCSc1nnc(NC(=O)c2ccc3c(c2)OCCO3)s1
54	7	·	8%	-5	2%	-4.3	Cc1ccc(S(=O)(=O)N2CCN(C(=O)Cn3nc(C(=O)O)c4ccccc4c3=O)CC2)cc1
55	-84*	-76*	4%	-5	-8%[15.4 µM]	-1.7	COc1cccc(CNC(=O)c2c[nH]n3c(=O)c(Cl)c(C)nc23)c1
56	2	2	1%	13	-51%[inhibitor]	1.7	CSc1nc2nc3c(cn2n1)C(=O)CC(c1ccccc1)C3 (stereo not given)
57	6	3	4%	0	-29%	0.9	CCOc1cc(C(=O)NC(C)CC)cc(OCC)c1OCC (stereo not given)
58	-1	-6	-8%	-4	-42%[inhibitor]	-4.5	CCOC(=O)N1CCC(N2Cc3cccc(C(=O)Nc4cc(F)ccc4F)c3C2=O)CC1
59	-4	-13	-13%	-26	5%	0.8	O=C(Nc1ccc2c(c1)OCO2)N1CCN(c2cccc(C(F)(F)F)c2)CC1
60	3	5	5%	-4	5%	-3.5	CC(C)c1ccccc1OS(N)(=O)=O
61	-10	-4	-4%	-11	3%	-0.6	OC(CN1CCN(c2ccccc2)CC1)c1c[nH]c2ccccc12 (stereo not given)

Among those listed so far, these have an NH in an aromatic ring.
No.	Six1-Eya2 inh	CtBP-E1A blk	gsp antagonist	D2 potentiator	gsp ag	D2 agonist	SMILES
10	-2	-9	-1%	4	-5%	0.8	CN(CCc1cn[nH]c1)C(=O)C1CCC(=O)N(CC2CCCCC2)C1 (stereo not given)
20	9	-16	-19%	-15	3%	3.4	O=c1cc(-c2ccc([N+](=O)[O-])cc2)c2cc3c(cc2[nH]1)OCCO3
22	2	8	-15%	-7	15%	3.9	O=c1c2ccccc2oc2ccc(-c3ccc4cc[nH]c4c3)cc12
26	0	3	-6%	-22	9%	-3.5	CC1CCN(C(=O)c2[nH]cnc2C(=O)Nc2ccc(Cl)cc2)CC1
31	3	8	6%	-15	·	-2.7	COc1ccc(C2c3[nH]c4ccccc4c3C[C@H]3C(=O)N(c4ccccc4C(=O)N4CCC[C@@H]4C(=O)O)C(=O)N23)cc1 (stereo not given in full)
40	-3	-17	14%	-10	-69%[inhibitor]	3.9	CCOc1ccc(C(=O)N2CCC3(CC2)NCCc2[nH]cnc23)cc1OCC
51	2	-3	-11%	-15	9%	0.4	COc1ccc(/C=N/OC/C(O)=C(\C#N)c2nc3ccccc3[nH]2)cc1OC
55	-84*	-76*	4%	-5	-8%[15.4 µM]	-1.7	COc1cccc(CNC(=O)c2c[nH]n3c(=O)c(Cl)c(C)nc23)c1
61	-10	-4	-4%	-11	3%	-0.6	OC(CN1CCN(c2ccccc2)CC1)c1c[nH]c2ccccc12 (stereo not given)
